HSD17B inh = blocks hydroxysteroid 17-beta dehydrogenase activity; Q99714; recombinant HSD17B10, NADH fluorescence kinetic; many of its hits are not listed in these tables; Potency, µM (titrated, usually from 57.1 µM), inactives show at the highest dose activity change, negative = inhibition, hits mostly inhibitors; actives 7.6% (n = 75,000); AID 893; active = well fitted inhibition curve with a large enough effect; inconclusive = small, poorly fitted or top-dose-only effect; inactive = no such curve, though single readings can be large or run the other way;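 also: the protocol describes HADH2 (HSD17B10) and not the HSD17B4 of the title; nearly all actives have a fitted effect of over 70% in size; most hits overshoot -100% by far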
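Enzyme plus compound, 15 min room temperature; substrate mix added (NAD+ 1 mM, beta-hydroxybutyryl-CoA 90 uM final); plates read kinetically for NADH fluorescence. HADH2 was His-tagged, E. coli-derived, 20 nM.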
The depositor's hits bear a star; ? = inconclusive; [ ] = remark or other dose. % is scaled to controls: 0 for no effect and ±100 for the full control effect; potency is read from the fitted curve at half-maximal effect. A portion of the library; the hit share may differ from the screen's.

molecule | HSD17B inh
Cn1c(=O)c2cc(S(=O)(=O)NCCC(=O)NCCC3=CCCCC3)ccc2n(C)c1=O | 4%
CC(=O)Nc1ccc(NC(=O)CCC(=O)NCCO)cc1 | 6%
O=C(O)C1CC=C(Cl)CC1C(=O)NCc1ccccc1 (stereo not drawn) | -1%
CCCn1c(C)nc2c(NCCN(C(C)C)C(C)C)nc(C)nc21 | -1%
O=C(Nc1ccc(N2CCOCC2)cc1N1CCOCC1)c1ccco1 | -6%
O=C(Nc1nc2ccc(Cl)cc2s1)c1ccc(Br)o1 | ?
O=C(O)c1cc(Cl)ccc1NC(=O)C1CCCO1 (stereo not drawn) | ?
COc1cc(C2Nc3ccc4ncccc4c3C3=C2C(=O)CCC3)cc(OC)c1O (stereo not drawn) | -23%
CC1(C)Cc2c(c(=S)nc(-c3ccccc3)n2CCN2CCOCC2)CO1 | -11%
CCCCCOC(=O)CSc1nnc(-c2cc(OC)c(OC)c(OC)c2)o1 | -7%
O=C(NC1CCCCC1)N(Cc1nc2ccccc2c(=O)[nH]1)C1CCCCC1 | -15%
COCCNC(=O)C(c1ccc(C)o1)N(C(=O)c1snc(C(N)=O)c1N)c1ccc(C)c(C)c1 (stereo not drawn) | ?
COc1ccccc1-n1c(C)nnc1SCC(N)=O | -6%
O=c1[nH]cnc2nc(-c3ccccc3)c(-c3ccccc3)nc12 | 32µM*
O=C(Nc1ccc(S(=O)(=O)N2CCCCCC2)cc1)c1ccc(Br)o1 | -21%
COc1ccc(S(=O)(=O)N(C)CC(=O)NC2CC2)cc1 | 10%
NC(=O)c1oc2ccc(Cl)cc2c1NC(=O)CN1CCOCC1 | -6%
FC(F)(F)c1ccccc1-n1ccnc1 | 2%
CCC(C(=O)Nc1cnccn1)c1ccccc1 (stereo not drawn) | 2%
COCC(C)NC(=O)c1cc(-c2ccc(O)cc2)on1 (stereo not drawn) | -2%

Molecules from the list above with an NH in an aromatic ring, in the order listed:
molecule | HSD17B inh
O=C(NC1CCCCC1)N(Cc1nc2ccccc2c(=O)[nH]1)C1CCCCC1 | -15%
O=c1[nH]cnc2nc(-c3ccccc3)c(-c3ccccc3)nc12 | 32µM*

The listing continues:
molecule | HSD17B inh
O=C1CC(c2ccc(F)cc2)Cc2nc(N3CCN(c4ccccc4)CC3)ncc21 (stereo not drawn) | 60%[activator]
O=C(CCCCn1c(=O)c2ccccc2n(Cc2ccc(F)cc2Cl)c1=O)NCc1ccco1 | -17%
CC(=O)Nc1cc2c(cc1C(=O)C(C)C)OCCO2 | ?
CCn1c(COc2ccccc2)nnc1SCc1ccc(C#N)cc1 | -10%
CC(C)Nc1nc(SCC(=O)Nc2ccccc2)nc(N2CCOCC2)n1 | 11%
CC(C)(C)OC(=O)N1CC(O)CC1C(=O)OCC(=O)c1ccc(Cl)cc1 (stereo not drawn) | 20%
CCOC(=O)OCC1OC(C#Cc2ccc(C(C)(C)C)cc2)C=CC1OC(=O)OCC (stereo not drawn) | -2%[11.4 µM]
O=c1c(-c2ccccc2)nc2cncnc2n1Cc1ccccc1Cl | ?
Cc1cc(C)cc(OCc2nnc(SCC(=O)OC3CCCCC3)o2)c1 | 10%
O=C(NCc1ccc2c(c1)OCO2)c1ccc(-c2ccc(Cl)cc2)o1 | 25µM*
O=C(CSc1ccc2nnc(-c3cccnc3)n2n1)NCc1ccco1 | -7%
Fc1ccc(C(c2nnnn2Cc2ccccc2)N2CCSCC2)cc1 (stereo not drawn) | -4%
O=C(c1cc(-c2cccnc2)nc2ccc(Br)cc12)N1CCC2(CC1)OCCO2 | 6%
CSc1ccc(/C=N/n2nnnc2N)cc1 | 32µM*
Cn1c(=O)c(C(=O)COC(=O)c2cc(C(F)(F)F)nc3c(C(F)(F)F)cccc23)c(N)n(CC2CC2)c1=O | -19%
CCOC(=O)N1CCN(S(=O)(=O)c2cc3c(cc2C)NC(=O)CO3)CC1 | -6%
CC(=O)c1ccc(Nc2cc(C)nc3nc(C)nn23)cc1 | -3%
CCOC(=O)c1ccc(N2C(=O)C3CC=C(C)CC3C2=O)cc1 (stereo not drawn) | 4%
O=C(CCN1C(=O)c2ccccc2S1(=O)=O)Nc1ccc2c(c1)OCCO2 | 3%
Cc1ccc(/C=c2\sc3nc(-c4cccnc4)nn3c2=O)cc1 | ?
CC(=O)Nc1cccc(OCC(=O)Nc2ccccc2)c1 | 10%
CCSc1nncn1/N=C/c1ccc(OC)c(OC)c1 | -17%
CC(C)C(c1nnnn1CC1CCCO1)N1CCN(C2CCCC2)CC1 (stereo not drawn) | -4%
NC(=O)N1CC(O)CC1C(=O)Nc1ccc(Cl)c(Cl)c1 (stereo not drawn) | -1%
O=C(Cc1cccs1)N(Cc1ccco1)C1(C(=O)NC2CCCC2)CCCCC1 | 1%
CCOc1cc(N2CCOCC2)c(OCC)cc1NC(=O)Cn1[nH]c(=O)c2ccccc2c1=O | 8%
Cc1cc(C)n(-c2ccc(C(=O)OCC(=O)N(CC(C)C)C3CCS(=O)(=O)C3)cc2)n1 (stereo not drawn) | 9%
O=S(=O)(NCC1CCCO1)c1ccc2oc3ccc(S(=O)(=O)NCC4CCCO4)cc3c2c1 (stereo not drawn) | 14%
COc1ccc(C(C)(C)C)cc1NC(=O)C1C2C=CC(C2)C1C(=O)O (stereo not drawn) | 8%
CCOC(=O)N1CCC(NC(=O)C2CCN(S(=O)(=O)c3cccc4cccnc34)CC2)CC1 | 6%
CC(C)CN1CCC2(CC1)CCN(C(=O)c1cnccn1)CC2 | 6%
COc1ccc(O[C@H]2C=C[C@@H](c3ccccc3)O[C@@H]2CO/N=C(\C)CCN2CCCCc3nc(C)c(C)cc32)cc1 | -1%[11.4 µM]
O=C(c1cc(C(F)(F)F)cc(C(F)(F)F)c1)N1CCC2(CCCN(Cc3ccccc3)C2)CC1 | -4%
COc1ccccc1OCc1nc(C#N)c(NCc2ccco2)o1 | -3%
c1ccc(CSc2ncn(-c3ccccc3)n2)cc1 | -25%
CCCOc1ccc(C2C(=O)N(C3CCCCC3)CC(=O)N2CCC)cc1OC (stereo not drawn) | -4%
CCCCS(=O)CC(CS(=O)CCCC)OC(=O)c1ccc(C)cc1 (stereo not drawn) | 8%
CCCNC(=O)CCNC(=O)c1ccc(C(C)(C)C)cc1 | 4%
C=CCn1c(SCc2c(F)cccc2Cl)nnc1-c1ccco1 | -14%
COc1ccccc1C(=O)Nc1ccc(S(=O)(=O)N2CCCC2)cc1 | 7%

The list goes on (five carried over from the part before).
smiles	HSD17B inh
CCCOc1ccc(C2C(=O)N(C3CCCCC3)CC(=O)N2CCC)cc1OC (stereo not drawn)	-4%
CCCCS(=O)CC(CS(=O)CCCC)OC(=O)c1ccc(C)cc1 (stereo not drawn)	8%
CCCNC(=O)CCNC(=O)c1ccc(C(C)(C)C)cc1	4%
C=CCn1c(SCc2c(F)cccc2Cl)nnc1-c1ccco1	-14%
COc1ccccc1C(=O)Nc1ccc(S(=O)(=O)N2CCCC2)cc1	7%
COc1ccc(C(=O)Nc2cc(Cl)cc(Cl)c2)c(OC)n1	0%
COc1cc(C(=O)OCC(=O)NCc2ccco2)cc(OC)c1OC	-13%
Oc1ccc(Nc2nc(-c3ccc(O)cc3)cs2)cc1	-21%
Cc1occc1-c1nnc(SCC(=O)Nc2nccs2)n1Cc1ccco1	-4%
COC(=O)CSc1cc(SCC(=O)OC)c(C#N)c(SCC(=O)OC)c1	23%
O=C(NCc1ccncc1)c1ccc(Br)o1	?
CC1Cc2ccccc2N1S(=O)(=O)c1ccc2c(c1)n(C)c(=O)c(=O)n2C (stereo not drawn)	-10%
CN(C)S(=O)(=O)Nc1ccc(Oc2ccccc2)cc1	1%
CC1=CC2C(CC1=O)C(C)=CCC2C(C)C (stereo not drawn)	-6%
CCCc1c(O)nc(SCCN(CC)CC)n(C(=O)c2ccccc2)c1=O	-2%
COc1cc2c(cc1OC)C(C)N(C(=O)C1COc3ccccc3O1)CC2 (stereo not drawn)	-4%
CC(C)(C)n1nc2c(c1NC(=O)c1cccc(C(F)(F)F)c1)CS(=O)C2 (stereo not drawn)	1%
CCC(C)[C@H](NC(=O)NCc1cccc(OC)c1)C(=O)OC (stereo partly drawn)	-3%
Cc1ccc(C(=O)CSC2=C(C#N)C(c3ccco3)CC(=O)N2)c(C)c1 (stereo not drawn)	-17%
O=C(c1ccc(N2CCOCC2)cc1)c1cccs1	-2%
COc1ccccc1/C=c1\sc2nc(-c3ccco3)nn2c1=O	25µM*
CC(C)(C)C1CCc2onc(C(=O)NC3CCCC3)c2C1 (stereo not drawn)	-10%
COc1ccc(-c2nsc3c(N4CCN(S(=O)(=O)c5ccccc5)CC4)ncnc23)cc1	4%
O=C(CNC(=O)C1CCCCC1)NCCCO	3%
CC(=O)[C@H]1CC[C@@H]2[C@H]3CC=C4C[C@@H](O)CC[C@]4(C)[C@H]3CC[C@]12C	1%[25.6 µM]
CCOc1ccc(N2C(=O)CC(Sc3nc(C)cc(C)c3C#N)C2=O)cc1 (stereo not drawn)	-10%
O=C(CCN1C(=O)c2ccccc2C1=O)NCCN1CCOCC1	3%
O=C(NCCN1CCOCC1)c1cc2c(=O)n3ccccc3nc2n1Cc1ccccc1	7%
Cc1nnc(NC(=O)CCC(=O)N2CCN(CCc3ccccc3)CC2)s1	6%
CC(=O)Nc1ccc(N2S(=O)(=O)c3ccccc3S2(=O)=O)cc1	-3%
COc1ccc(-n2c(Cc3cccn3C)nnc2SCC(=O)NCc2ccco2)cc1	3%
COC(=O)[C@@]1(Cc2ccc(OC)cc2)[C@H]2c3cc(C(=O)N4CCCC4)n(Cc4ccc(C)o4)c3C[C@H]2CN1C(=O)c1ccccc1	11%
Cc1ccc2c(c1)c1c3n2CCN(C(=O)CN2CCN(C)CC2)C3CCC1 (stereo not drawn)	?
O=C(Cc1c(F)cccc1Cl)Nc1ccncc1	-1%
CCCCCn1c(Br)nc2c1c(=O)n(CC(N)=O)c(=O)n2C	6%

Quoted at random: 2 entries already listed.
smiles	HSD17B inh
CCCCCn1c(Br)nc2c1c(=O)n(CC(N)=O)c(=O)n2C	6%
O=C(NCc1ccncc1)c1ccc(Br)o1	?

The list goes on.
smiles	HSD17B inh
Cc1cccc(-c2nsc(SCC(=O)Nc3cc(C)on3)n2)c1	7%
CCOc1ccc(C)cc1S(=O)(=O)N1CCCCC1	4%
CCOc1ccccc1NC(=O)C1CCCN(S(=O)(=O)c2ccc(OC)c(C)c2)C1 (stereo not drawn)	1%
O=C(CN(C(=O)CCNC(=O)c1ccco1)c1ccccc1)NC1CCCC1	-5%
COc1ccc(Cl)cc1NC(=O)CSc1nnc(Cn2c(=O)sc3ccccc32)n1C	-1%
C(=C\c1ccccc1)/C=N/n1cnnc1	-8%
CCNC(=O)CC(=O)Nc1ccccc1C(=O)O	3%
COc1ccc(OC)c(CCNC(=O)CS(=O)(=O)Cc2nc(-c3ccc(C)cc3)oc2C)c1	0%
COc1cc(=O)[nH]c(SCc2c(F)c(F)c(F)c(F)c2F)n1	-1%
Cc1nc2cc(NCc3nc4ccccc4n3Cc3ccccc3)ccc2n1C	4%
O=C(Nc1ccc(Cl)c(Cl)c1)N1CCSC1c1ccco1 (stereo not drawn)	-11%
O=C(NCc1ccc(F)cc1)C1CCCN1C(=O)NCc1ccccc1 (stereo not drawn)	7%
CC(C)c1nnc(NC(=O)c2c(O)c3cccc4c3n(c2=O)CC4)s1	?
CCOC(=O)N1CCN(c2cc(NCCC(=O)O)c3c4c(onc24)-c2ccccc2C3=O)CC1	?
Cc1ccccc1OCCCN1C(=O)C(=O)c2cccc(C)c21	16µM*
CCOC(=O)C1CCN(C(=O)Nc2ccc3snnc3c2)CC1	1%
Cn1c(SCc2nnc(-c3ccc(F)cc3)o2)nnc1C1COc2ccccc2O1 (stereo not drawn)	-7%
COc1cc(-c2nnc(SCc3cc(=O)oc4cc(C)ccc34)o2)cc(OC)c1OC	-1%
COc1ccc(-c2nc(N3CCOCC3)nc3n[nH]c(N)c23)cc1	-1%
Cc1ccc2cc3cc(C(=O)NCCC(C)C)oc3nc2c1	3.2µM*
CCCCc1c(O)nc(SCC(=O)NCCc2ccc(OC)c(OC)c2)[nH]c1=O	-2%
CCOc1ccccc1C1N(c2ccc(OC)cc2)C(=O)C2CCCN21 (stereo not drawn)	3%
COC(=O)c1ccccc1NC(=O)c1noc2c1CCC2	25µM*
c1ccc(C2=NN[C@@H]3c4ccccc4-c4ccccc4N3C2)cc1	3%[11.4 µM]
Cc1cc(=Nc2ccc3c(c2)c(N)cc(C)[n+]3C)nc(N)n1C	4%[11.4 µM]
O=C(CCNS(=O)(=O)c1cccc2nonc12)NCCc1ccc(Cl)cc1	-2%
CN(C)S(=O)(=O)c1ccc(C(=O)Nc2ccccc2C(=O)O)cc1	7%
CC(=O)OC1C[C@]2(C)C(C(C)=O)CCC2C2CCC3=CC(=O)CC[C@@]3(C)C12 (stereo partly drawn)	3%
Cc1nc(Nc2ccc(S(N)(=O)=O)cc2)oc1C	11%
CO[C@@H]1COC(=O)[C@H]2CCCN2C(=O)[C@@H](C)COC(=O)C/C=C\[C@H]1C	3%[11.4 µM]
CC(C)CN1CCC2(CC1)CCN(C(=O)c1cc(C(F)(F)F)cc(C(F)(F)F)c1)CC2	2%
CCn1c(CSc2nnc(-c3ccc4c(c3)OCO4)o2)nc2cc(S(=O)(=O)N(C)C)ccc21	-10%
CCCNc1nc2c(c(=O)[nH]c(=O)n2C)n1Cc1cccc(Br)c1	4%
C/C(CCN1CCCc2nc(C)c(C)cc21)=N\OC[C@@H](C)[C@H](OCc1ccccc1)C(C)C	-3%[11.4 µM]
COC(=O)c1ccccc1NC(=O)CN(CCc1ccccc1)S(C)(=O)=O	-23%
O=C(NCc1cccnc1)c1ccccn1	11%

Screens from PubChem BioAssay.
